Assay outcomes from PubChem BioAssay.
MARV entry inh – inhibitors of Marburg virus binding or cell entry. 300,000 compounds, 1.8% hits. Marburg virus pseudotyped entry inhibition, cell reporter; control for the full effect not named in the record; about a third of the inactives were read at about 46 µM. Potency, µM (series often up to 37.8 µM), inactives show at the top dose activity change, negative = inhibition, actives largely listed as inhibitors. AID 540276; active = well fitted inhibition curve with a large enough effect; inconclusive = small, poorly fitted or top-dose-only effect, or effect the other way; inactive = flat fitted curve, though single readings scatter; tested in HEK293 cells; about a fifth of its hits are not listed in these tables; further: on the % scale 0 is the no-effect control and ±100 the full control effect; luciferase read-out
Cruzain inh Det – inhibitors of Trypanosoma cruzi cruzain with detergent. 200,000 compounds, 0.43% hits. P25779. Potency, µM, inactives show max response, negative = inhibition, usual class: inhibitors. purified cruzain, Z-FR-AMC fluorescence, 0.01% Triton;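 further: plate controls were neutral wells for no effect and buffer without enzyme for full effect; nearly all actives have a fitted effect of over 40% in size; top concentration of the series not given in the record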
Target sequence (P25779 123-467 limits assumed): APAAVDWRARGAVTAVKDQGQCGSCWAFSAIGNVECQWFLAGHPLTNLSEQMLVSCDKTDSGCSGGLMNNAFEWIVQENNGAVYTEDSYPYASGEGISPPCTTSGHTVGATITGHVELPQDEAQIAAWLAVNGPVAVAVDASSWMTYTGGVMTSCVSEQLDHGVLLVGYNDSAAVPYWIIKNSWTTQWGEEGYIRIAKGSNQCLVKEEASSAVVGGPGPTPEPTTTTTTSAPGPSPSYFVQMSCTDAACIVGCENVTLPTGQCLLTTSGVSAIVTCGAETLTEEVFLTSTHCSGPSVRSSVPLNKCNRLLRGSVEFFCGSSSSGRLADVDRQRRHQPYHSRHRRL
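Steps: dispense cruzain (1.5 nM final) in acetate buffer pH 5.5 with DTT and 0.01% Triton X-100; pin-transfer compounds; incubate 15 min RT; add Z-FR-AMC (2 uM final); read fluorescence every 30 s, using the 60 s intensity change.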
NS1 inh – influenza NS1 inhibition. Potency, µM (doses to about 46.1 µM), without a hit: at the top dose activity, positive = more growth. 270,000 compounds, 0.4% hits. S. cerevisiae slowed by influenza A NS1, growth recovery by OD600; active means well fitted rising curve with a large enough effect; inconclusive means small, poorly fitted or top-dose-only effect; inactive means no such curve, though single readings can be large or run the other way; further: nearly all actives have a fitted effect of over 50% in size
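OD600 was taken as the measure of yeast growth restored by compound in an NS1-expressing S. cerevisiae strain. Cells had been washed out of glucose medium and diluted 1:100 into galactose -URA medium, pH 6.0.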
SARS PLpro yeast – blocks SARS-CoV papain-like protease in a yeast assay; Potency, µM (titrated, usually from 32.9 µM), inactives show at the top dose activity, positive = growth rescue; 330,000 compounds, 0.19% hits; S. cerevisiae expressing SARS-CoV PLpro, growth rescue; control for the full effect not named in the record; active means well fitted rising curve with a large enough effect; inconclusive means small, poorly fitted or top-dose-only effect; inactive means no such curve, though single readings can be large or run the other way; further: 0% is about no effect; nearly all actives have a fitted effect of over 55% in size; growth read by luminescence after 48 h
RE007 growth inh – less growth of the S. pombe RE007 Vpr strain | S. pombe RE007 Vpr strain, BacTiter-Glo ATP luminescence, 24 h; control for the full effect not named in the record | Potency, µM (top dose mostly 92.2 µM), for inactives: at the highest dose activity change, negative = less growth | 360,000 compounds, 0.21% hits | AID 651644; active = well fitted falling curve with a large enough effect; inconclusive = small, poorly fitted or top-dose-only effect; inactive = no such curve, though single readings can be large or run the other way;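 further: on the % scale 0 is the no-effect control and ±100 the full control effect; nearly all actives have a fitted effect of over 50% in size; the assay follows cell death caused by Vpr and the record does not say whether a fall means rescue or toxicity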
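Fission yeast RE007 carrying one integrated HIV-1 vpr copy, seeded at OD 0.01 in PMG+AL medium with 23 nL pinned compound. Grown 24 h at 30 degrees; viability read by BacTiter-Glo luminescence after 5 min.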
StopGo reporter – lowers the luciferase signal of an FMDV 2A StopGo reporter; human cells with a luciferase reporter of 2A StopGo recoding; control for the full effect not named in the record; 410,000 compounds, 1.2% hits; Potency, µM (series often up to 57.9 µM), for inactives: top-dose signal change, negative = less light; AID 1159524; active = well fitted falling curve with a large enough effect; inconclusive = small, poorly fitted or top-dose-only effect; inactive = no such curve, though single readings can be large or run the other way; tested in HEK293T cells; further: on the % scale 0 is the no-effect control and ±100 the full control effect; nearly all actives have a fitted effect of over 45% in size; luciferase light after 4 h
Cruzain noTriton – cruzain (T. cruzi) inhibition without detergent; purified cruzain, Z-FR-AMC fluorescence, no detergent; Potency, µM, for the others: max response, negative = inhibition, hits mostly inhibitors; 200,000 compounds, 2.3% hits;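 further: plate controls were enzyme without inhibitor for no effect and buffer without enzyme for full effect; nearly all actives have a fitted effect of over 40% in size; top concentration of the series not given in the record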
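Purified cruzain at 1.5 nM, pre-incubated 15 min with compound at room temperature in 100 mM sodium acetate pH 5.5, 5 mM DTT, 0.00005% Triton X-100. Reaction started with 2 uM Z-FR-AMC; AMC fluorescence increase over 60 s gives rate.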
Lassa entry inh – inhibitors of Lassa virus binding or cell entry; 300,000 compounds, 1.2% hits; Lassa virus pseudotype entry inhibition, cell reporter; control for the full effect not named in the record; AID 540256; Potency, µM (titrated, usually from 37.9 µM), without a hit: top-dose activity change, negative = inhibition, actives largely listed as inhibitors; active means well fitted inhibition curve with a large enough effect; inconclusive means small, poorly fitted or top-dose-only effect, or effect the other way; inactive means flat fitted curve, though single readings scatter; tested in HEK293 cells; further: on the % scale 0 is the no-effect control and ±100 the full control effect; nearly all actives have a fitted effect of over 50% in size; luciferase read-out
* = called active by the depositor; ? = inconclusive; . = no result given; & = joins results of further samples; [ ] = another dose, or the depositor's remark. Unless noted, the call rests on the fitted dose curve; in most records, active means well fitted curve in the direction sought with a large enough effect; inconclusive means small, poorly fitted or top-dose-only effect, or another doubt; inactive means no such curve, though single readings can be large; an effect the other way counts as inactive or inconclusive. Potency means the concentration at half of the fitted maximal effect.

SMILES | MARV entry inh | Cruzain inh Det | NS1 inh | SARS PLpro yeast | RE007 growth inh | StopGo reporter | Cruzain noTriton | Lassa entry inh
CCc1ccc2c(c1)-c1ccccc1S(=O)(=O)N2CC(=O)N1CCC(C)CC1 | -5%[46.1 µM] | -6.0% | . | . | . | 1% | -17% | 28%[46.1 µM]
CCOc1ccc(CC(=O)N/N=C(\C)c2cccnc2)cc1OCC | 0%[46.1 µM] | . | -2% | -4% | 0% | -17% | . | -15%[46.1 µM]
CCOC(=O)NC(=O)C(/C=N/c1sccc1C(=O)OC)=C(\C)O | ? | . | 3% | 2% | 6% | ? | . | ?
O=C(N/N=C/c1ccc(N2CCOCC2)o1)c1cccc(C(F)(F)F)c1 | -16% | -5.7% | 8% | -1% | 5% | -14% | 4% | ?
Cc1cc(C)c2nc(C(F)(F)F)nc(NCCCN3CCCC3=O)c2c1 | ? | -6.1% | 5% | 2% | 13% | ? | ? | ?
COc1ccccc1N1CCN(C(=O)C2CCN(C(=O)c3ccccc3C)CC2)CC1 | ? | . | 8% | ? | 5% | ? | . | -22%
CC(=O)c1ccc(N2CCN(C(=O)COc3ccccc3F)CC2)c(F)c1 | 4%[46.1 µM] | -3.7% | -5% | -13% | 2% | 19% | -1% | 2%
COc1cccc(-c2nnc(SC(C(=O)c3c[nH]c4ccccc34)c3ccccc3)n2C)c1 (stereo not given) | ? | -5.4% | 3% | 16% | -14% | ? | ? | ?
CCCCn1cnc2cc(NCc3ccncc3)ccc21 | -15% | 5.9% | -6% | 1% | -7% | -6% | 1% | 23%[14.3 µM]
COc1ccc(-c2csc(NC3CCCCC3)n2)c(OC)c1 | 9%[46.1 µM] | . | 10% | -2% | 2% | 68%[activator] | . | 5%
CC1=NN(C(N)=S)C(=O)C1N=Nc1ccccc1C(=O)O (stereo not given) | . | . | ? | 8% | 1% | 6% | . | .
CCN(CC)CCCNC(=O)C(C)n1c2ccccc2c2nc(=O)cc(C)n21 (stereo not given) | . | . | 9% | -1% | 11% | -5% | . | .
O=C(Nc1ccc(F)cc1F)c1cc2ncc(Br)cn2n1 | . | -3.0% | -6% | 3% | . | . | ? | .
CC(C)CNC(=O)COC(=O)/C=C/c1ccco1 | 2%[46.1 µM] | -3.7% | 12% | 14% | 10% | -5% | -4% | 3%
Cc1ccc(CNC(=S)Nc2cc(C(=O)O)ccc2C)cc1 | -8%[46.1 µM] | . | . | -2% | -9% | -16% | . | 17%[46.1 µM]
CSc1nnc(C)c(=O)n1COC(=O)c1ccc(S(=O)(=O)N2CCCC2)cc1 | 7% | -2.8% | -1% | 3% | -7% | -9% | 5% | 10%
COc1cccc(C(=O)Oc2ccc(/C=N/Nc3ccc(C(=O)O)cc3)cc2OC)c1 | ? | . | 9% | 0% | -20% | ? | . | ?
CCn1c(O)c(N=Nc2ccc(Cl)c(C(=O)O)c2)c2ccccc21 | 3%[46.1 µM] | . | -74% | -2% | 0% | 8% | . | 8%
CC(C)CC(=O)NC(=S)NNC(=O)c1ccc([N+](=O)[O-])cc1 | -10% | 4.2% | -22% | 25% | -1% | -20% | -16% | -3%
c1ccc(-c2ccc(CN3CCN(c4ncccn4)CC3)cc2)cc1 | -6% | 3.6% | ? | 2% | -10% | -18% | 1% | -10%
CCNS(=O)(=O)c1ccc2nc(NC(=O)/C=C/c3cc(OC)c(OC)c(OC)c3)sc2c1 | 29% | -0.3% | 20% | -12% | 7% | -6% | -4% | 5%
Nn1c(C2CCCCC2)nc2ccccc2c1=O | . | . | -2% | 1% | 4% | -3% | . | .
COc1ccccc1N1CCN(C(=O)c2sc3nc(-c4ccccc4)cn3c2C)CC1 | ? | -3.4% | 3% | -4% | 10% | . | ? | -3%
CCCc1cc(=O)[nH]c(SCC(=O)N(CC)c2c(N)n(Cc3ccccc3)c(=O)[nH]c2=O)n1 | -2% | . | . | 2% | -19% | -9% | . | 0%
O=C(CCc1ccccc1)Nc1nc2nc(-c3ccccc3)cc(=O)n2[nH]1 | 3%[46.1 µM] | -1.7% | -55% | -1% | 1% | -2% | 12% | 0%
COc1ccc(C2=NNC(c3cccnc3)=Nc3ccc(OC)cc32)cc1 | 29%[14.2 µM] | . | . | -1% | 4% | -7% | . | -14%
COCc1cc(C)nc2sc(C(=O)Nc3nccs3)c(N)c12 | . | -8.4% | -57% | 5% | -10% | 39%[activator] | 3% | .
O=C(NCC1CCCO1)c1ccc2c(c1)N(Cc1ccc(F)cc1)CCS2 (stereo not given) | . | . | -16% | -7% | 19% | -10% | . | .
CCCSc1nc2ccccc2n1CC(=O)O | 9%[46.1 µM] | . | 5% | 0% | 0% | 28% | . | 24%
O=C(NCCN1C(=O)C2C3C=CC(C3)C2C1=O)Nc1ccccc1 (stereo not given) | . | 1.5% | -9% | 2% | 12% | 33%[activator] | 2% | .
C/C(=N/NS(=O)(=O)c1ccc(C)cc1)c1ccc2c(c1)OCO2 | 14%[46.1 µM] | . | -20% | -1% | -8% | 30%[activator] | . | -7%[46.1 µM]
CC1CCCCN1CC(=O)NC(c1ccccc1)c1ccccc1 (stereo not given) | . | . | 1% | -1% | 11% | -5% | . | .
Cc1ccc(C(=O)NNC(=O)C(C)Sc2nc(N)cc(N)n2)cc1 (stereo not given) | 6% | 6.5% | 3% | 2% | -12% | -11% | -9% | -7%
CC(=O)OC(C(=O)N1CCOCC1)c1c(F)cccc1F (stereo not given) | . | . | 8% | 0% | 1% | -3% | . | .
O=C1c2ccccc2C(=O)N1CC1c2ccccc2CCN1C(=O)N1CCOCC1 (stereo not given) | -5% | 1.6% | 6% | 1% | 1% | -5% | 5% | 16%
Cc1nn(Cc2ccc(F)cc2)c(C)c1NC(=O)c1cc(CC(C)C)on1 | ? | -3.4% | . | . | . | ? | 2% | -22%[46.1 µM]
O=C1c2ccccc2NC(c2ccc(Cl)cc2Cl)N1O (stereo not given) | -22% | 3.0% | -71% | 14µM* | ? | -8% | -7% | 2%
CC(=O)c1ccccc1NC(=O)COC(=O)/C=C/c1ccc(OC(F)F)cc1 | -1% | . | . | 7% | -22% | -22% | . | 10%[46.1 µM]
CC(=O)N1CCSc2ccc(S(=O)(=O)NCCc3ccc(Cl)cc3)cc21 | . | . | 6% | 1% | -1% | -9% | . | .
Cc1ccc(S(=O)(=O)NCc2ccc(C(=O)N3CCN(c4ccc([N+](=O)[O-])cc4)CC3)cc2)cc1 | . | . | 11% | 29% | -4% | ? | . | .
COc1cccc(NC(=O)CSc2nc3c(oc4ccccc43)c(=O)[nH]2)c1 | -12% | 0.5% | ? | -12% | -24% | 1% | ? | ?
CC1CCN(c2ccc(C(=O)N3CCOCC3)cc2[N+](=O)[O-])CC1 | 1% | -3.6% | -9% | -3% | -1% | 4% | -4% | 0%
CC(C)n1c(CN(C)c2ccccc2)nc2ccccc21 | -23% | . | -25% | 13% | -27% | ? | . | ?
COc1ccc(OCc2cc(C(=O)NC(C)Cc3cnccn3)no2)c(Cl)c1 (stereo not given) | . | . | 5% | 2% | -4% | 10% | . | .
Clc1cccc(-n2cc(-c3ccccc3)c3c(NC4CCCC4)ncnc32)c1 | . | -0.5% | . | . | . | -24% | 6% | 13%[46.1 µM]
CCCCCCc1c(C)c2ccc(OCC(=O)N3CCC[C@H]3C(=O)O)c(C)c2oc1=O | . | . | 25% | 5% | -12% | -18% | . | .
CC(C)C1N=C2c3ccccc3N=C(SCC#N)N2C1=O (stereo not given) | -1% | -9.6% | -2% | 6% | 14% | -19% | -15% | -3%
CCCN(CC(=O)Nc1ccccc1C)C(=O)CCNC(=O)c1ccccc1Cl | 10%[46.1 µM] | . | . | . | -1% | 4% | . | -14%
O=C(C1CCCCC1)N1CCc2[nH]c3ccc(F)cc3c2C1 | . | . | -3% | -1% | -3% | -22% | . | .
C[C@H](CO)NC(=O)[C@H](C)[C@H]1C[C@]1(C)[C@H](NC(=O)OCc1ccccc1)c1ccccc1 | -13% | -0.3%&-1.3% | -10% | 18% | 1% | -13% | 10%&2% | ?
COCCCn1c(-c2ccccc2)nc2ccccc2c1=O | 13% | 2.4% | 7% | -1% | 0% | -10% | 9% | 9%
Nc1c(N2CCCC2)c2ccccc2oc1=O | 11%[46.1 µM] | . | 1% | -1% | -26% | -5% | . | -14%[46.1 µM]
Cc1cc(C(=O)OCC(=O)N2CCOCC2)ccc1[N+](=O)[O-] | 3%[46.1 µM] | . | . | -2% | 1% | 12% | . | -1%
O=C(Nc1nnc(-c2ccco2)o1)c1ccc2ccccc2c1 | 14µM* | 0.4% | 10% | -8% | 4% | 55%[activator] | ? | ?
O=S(=O)(N/N=C\C=C\c1ccccc1)c1ccc(Br)cc1 | ? | -9.3% | -132% | -31% | 4% | 33%[activator] | -5% | -3%
Cc1ccc(NC(=O)N2CC3CCCN3c3ccccc32)cc1C (stereo not given) | ? | -17% | . | . | . | -17% | ? | ?
O=C(Nc1ccc(F)cc1)c1nc(S(=O)(=O)Cc2ccccc2)ncc1Cl | . | . | -106% | -9% | 2% | ? | . | .
CCOc1cc(CNC(=O)c2ccc3c(c2)nc2n3CCCCC2)ccc1OC | . | 7.9% | . | . | . | -8% | -12% | 6%[46.1 µM]
CC(=O)Nc1ccc(NC(=O)C(C)OC(=O)CSCc2cccc(Cl)c2)cc1 (stereo not given) | ? | . | . | 6% | -25% | 12% | . | 4%
COC(=O)c1c(NC(=O)CSc2ncnc3[nH]ncc23)sc2c1CCC2 | 12%[46.1 µM] | . | -2% | 3% | 10% | 5% | . | ?
CC(=O)Nc1c(Cl)cc(Cl)c2c1Cc1cc(Cl)ccc1-2 | -4%[46.1 µM] | . | . | . | -18% | -20% | . | 2%[46.1 µM]
COc1ccc(OCC(=O)Nc2ccc3c(c2)nc(CCN2CCCC2)n3C)cc1 | . | . | -5% | -3% | -5% | 7% | . | .
Cc1ccc(-c2nc(C#N)c(N3CCCCC3)o2)cc1 | . | -30% | -9% | 4% | -11% | 11% | 3% | .
